# High-throughput results deposited in PubChem BioAssay by National Center for Advancing Translational Sciences (NCATS).
# VDR inh: blocks the human vitamin D receptor; P11473; VDR-SRC2-3 peptide fluorescence polarization, 2 h; Potency, µM, inactives show max response, negative = inhibition, usual class: inhibitors; 0.93% of 400,000 active; AID 504847; active means well fitted inhibition curve with a large enough effect; inconclusive means small, poorly fitted or top-dose-only effect, or another doubt; inactive means no such curve, though single readings can be large or run the other way; further: series mostly up to about 120 µM
# Target sequence (P11473 whole entry, looked up): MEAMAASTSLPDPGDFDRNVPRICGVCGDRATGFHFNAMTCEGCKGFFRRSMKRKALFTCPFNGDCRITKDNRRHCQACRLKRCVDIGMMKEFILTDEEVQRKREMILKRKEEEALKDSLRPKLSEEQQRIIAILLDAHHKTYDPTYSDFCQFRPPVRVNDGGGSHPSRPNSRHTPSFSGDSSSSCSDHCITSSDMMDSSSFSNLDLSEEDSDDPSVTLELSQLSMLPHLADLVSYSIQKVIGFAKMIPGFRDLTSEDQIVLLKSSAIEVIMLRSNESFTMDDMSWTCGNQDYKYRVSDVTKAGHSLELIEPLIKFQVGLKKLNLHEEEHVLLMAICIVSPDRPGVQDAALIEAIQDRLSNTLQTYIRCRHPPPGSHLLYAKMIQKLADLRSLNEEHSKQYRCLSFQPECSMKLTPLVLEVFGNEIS
#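 Measured by FP: displacement of SRC2-3 coactivator peptide from VDR by library compounds, following a two-hour ambient incubation.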
# * = called active by the depositor; ? = inconclusive; & = joins results of further samples. On the % scale 0 is the no-effect control and ±100 the full control effect; potency means the concentration at half of the fitted maximal effect. An excerpt, so the mix of outcomes need not match the whole.
VDR inh | SMILES
7% | O=C(CSc1nc2c(c(=O)[nH]1)CN(Cc1ccc3c(c1)OCO3)CC2)Nc1cccc(Cl)c1
9% | CC(=O)c1ccc(NS(=O)(=O)c2cccc(C)c2)cc1
-6% | [O-]/[N+](=C\C=C\c1ccccc1)c1ccccc1
14% | Cc1ccc(NC(=O)C2CCCN(S(=O)(=O)c3cccs3)C2)c(C)c1 (stereo unspecified)
-11% | Cc1ccc(C)c(C(=O)COc2ncnc3ccccc23)c1
10% | O=c1ccc(-c2ccc(S(=O)(=O)Nc3cccc(Br)c3)o2)n[nH]1
1% | Cc1csc(/C(=N\O)c2csc(C)n2)n1
-8% | CCc1ccc(N(C(=O)c2csnn2)C(C(=O)NC(C)(C)C)c2ccncc2)cc1 (stereo unspecified)
-8% | COc1ccc(S(=O)(=O)N(CC(=O)Nc2cccc(C(F)(F)F)c2)c2ccc(C)cc2)cc1
-6% | O=C(c1ccc(F)cc1)N1CCN(CCc2ccncc2)CC1

# (more compounds)
VDR inh | SMILES
22% | COCc1nnc(NC(=O)c2sc3ccccc3c2Cl)s1
-11% | NC(=O)C1CCN(C2OC(=O)c3ccccc32)CC1 (stereo unspecified)
-15% | O=C(O)c1cc(NS(=O)(=O)c2cccs2)cc(NS(=O)(=O)c2cccs2)c1
? | COc1ccc(Cn2nnc3ccccc32)cc1
10% | Cc1nn(C)c(C)c1NC(=O)COc1ccc(F)cc1Br
-6%&-25% | Cc1nc2sccn2c(=O)c1S(=O)(=O)NCc1ccccc1
11% | Cc1ccc(S(=O)(=O)N2CCC(C(=O)NCc3ccccc3CN3CCCC3)CC2)cc1C
-2% | CN(C(=O)Cn1cccc1C1=NC(c2ccccc2)CO1)c1ccccc1 (stereo unspecified)
2% | O=C(O)C1C2C=CC(C2)C1C(=O)Nc1cccc(C(F)(F)F)c1 (stereo unspecified)
-9% | Cn1c(N)c(C(=O)COC(=O)CCOc2ccc(C(C)(C)C)cc2)c(=O)n(C)c1=O

# Next section
VDR inh | SMILES
-13% | O=C1c2ccccc2C(=O)c2[nH]c(=O)[nH]c21
-2% | O=C(/C=C/c1ccccc1)Nc1ccc2c(c1)OCCO2
1% | CN(Cc1ccco1)C(=O)C1CCN(c2nnc(-n3cccc3)s2)CC1
4% | Cc1ccc(S(=O)(=O)NNC(=O)CCC(=O)Nc2ccccc2)cc1
1% | COc1ccc(CC(=O)NNc2ncnc3c2cnn3-c2ccc(C)cc2)cc1OC
9% | Cc1ccc(C=NCc2ccncc2)c(O)c1
-17% | COc1cccc(Oc2cc(NN3CCCCC3)c([N+](=O)[O-])cc2[N+](=O)[O-])c1OC
1% | COc1ccc(CNC(=O)COC(=O)c2nc3nc(C)cc(C)n3n2)cc1
-13% | O=C(c1ccccc1F)N1CCCC(C(=O)N2CCc3ccccc3C2)C1 (stereo unspecified)
-5% | O=C(Cn1nnc(-c2ccc(OCc3ccccc3F)cc2)n1)N1CCOCC1

# Rewritten with bars between the fields: entries from further up.
SMILES | VDR inh
Cc1nc2sccn2c(=O)c1S(=O)(=O)NCc1ccccc1 | -6%&-25%
Cc1ccc(S(=O)(=O)N2CCC(C(=O)NCc3ccccc3CN3CCCC3)CC2)cc1C | 11%
CN(C(=O)Cn1cccc1C1=NC(c2ccccc2)CO1)c1ccccc1 (stereo unspecified) | -2%
O=C(O)C1C2C=CC(C2)C1C(=O)Nc1cccc(C(F)(F)F)c1 (stereo unspecified) | 2%
Cn1c(N)c(C(=O)COC(=O)CCOc2ccc(C(C)(C)C)cc2)c(=O)n(C)c1=O | -9%
O=C1c2ccccc2C(=O)c2[nH]c(=O)[nH]c21 | -13%
O=C(/C=C/c1ccccc1)Nc1ccc2c(c1)OCCO2 | -2%
CN(Cc1ccco1)C(=O)C1CCN(c2nnc(-n3cccc3)s2)CC1 | 1%
Cc1ccc(S(=O)(=O)NNC(=O)CCC(=O)Nc2ccccc2)cc1 | 4%
COc1ccc(CC(=O)NNc2ncnc3c2cnn3-c2ccc(C)cc2)cc1OC | 1%
Cc1ccc(C=NCc2ccncc2)c(O)c1 | 9%
COc1cccc(Oc2cc(NN3CCCCC3)c([N+](=O)[O-])cc2[N+](=O)[O-])c1OC | -17%
COc1ccc(CNC(=O)COC(=O)c2nc3nc(C)cc(C)n3n2)cc1 | 1%
O=C(c1ccccc1F)N1CCCC(C(=O)N2CCc3ccccc3C2)C1 (stereo unspecified) | -13%
O=C(Cn1nnc(-c2ccc(OCc3ccccc3F)cc2)n1)N1CCOCC1 | -5%

# Continuation:
VDR inh | SMILES
10% | O=C(/C=C/c1ccccc1)NCCSCc1ccccc1Cl
-24% | CCn1cc(/C=C(\NC(=O)c2ccccc2F)C(=O)N2CCOCC2)c2ccccc21
11% | Cc1onc(-c2ccc(Cl)cc2)c1-c1ccnn1S(=O)(=O)c1cccc(C(F)(F)F)c1
2% | CC1=Nc2cc(C(=O)NCCCOC(C)C)ccc2Sc2ccc(C)cc21
11% | O=c1oc2cc(O)ccc2cc1-c1nc(-c2ccc(Cl)c(Cl)c2)cs1
3% | Cc1nn(-c2ccccc2)nc1C(=O)Nc1ccc2c(c1)OCCO2
4% | CC1=C(C(=O)Nc2cccc(Cl)c2C)C2(CCCCCC2)OC1=O
-3% | Cc1cccc(NC(=O)CC2C(=O)NCCN2C(=S)Nc2ccccc2)c1 (stereo unspecified)
-12% | C=CCn1c(=O)c2c(nc3n2CC(C)CN3CCc2ccccc2)n(C)c1=O (stereo unspecified)
9% | O=C(CCCCCN1C(=O)c2ccccc2C1=O)NCc1ccccn1

# Other structures follow.
VDR inh | SMILES
-2% | CCc1ccc(NC(=O)CSc2n[nH]c(=O)n2C2CC2)cc1
-11% | O=C(NC1CC1)C1CC(=O)N(C2CCCCC2)C1 (stereo unspecified)
-18% | CC(C)(CNCc1ccccc1)NS(=O)(=O)c1ccccc1
5% | Cc1nnsc1NC(=O)OCc1ccc(C(F)(F)F)cc1
-16% | CC1(OC(=O)C2CCCC2)C(=O)C=C2C=C(c3ccsc3)N(CCc3ccccn3)C=C2C1=O (stereo unspecified)
-7% | CC(=O)N1CCN(c2ccc(NC(=O)c3ccc(C(C)(C)C)cc3)cc2)CC1
10% | CC(C)Cc1nnc(NC(=O)CCC(=O)Nc2ccc(Cl)cc2)s1
5% | Cc1c(NC(=O)c2cnn3c2NC(c2ccccc2)CC3C(F)(F)F)c(=O)n(-c2ccccc2)n1C (stereo unspecified)
-6% | Cc1ccc(NC(=O)c2ccc3c(c2)OCO3)cc1S(=O)(=O)N1CCOCC1
12% | CCOC(=O)c1c(C)oc2nc(C)nc(NCCc3ccc(S(N)(=O)=O)cc3)c12

# Following part.
VDR inh | SMILES
-8% | O=C(NC(=S)NCC1CCCO1)c1cccs1 (stereo unspecified)
4% | COc1ccccc1CNC(=O)C(=O)NCC(c1cccs1)S(=O)(=O)c1ccc(F)cc1 (stereo unspecified)
3% | COc1ccc(-c2[nH]ncc2[C@@H]2C[C@H]3CN(Cc4ccccc4C)C(=O)[C@]34CCCN24)cc1
-5% | CC(=O)c1cnc2scnn2c1=O
-17% | COc1ccc(-c2c3c(nc4sc(C(=O)Nc5ccccc5)c(N)c24)CCC3)cc1
-2% | Cc1cc(-c2ccc(C)c(S(=O)(=O)N3CCN(C(=O)c4ccco4)CC3)c2)on1
-12% | CCc1nc(SCC(=O)NCc2ccccc2)c2c(=O)n(C)c(=O)n(C)c2n1
-18% | COc1cc(C(C)=O)ccc1OCC(=O)OCC(=O)c1cc(C)n(CC2CCCO2)c1C (stereo unspecified)
12% | Cc1oc(-c2ccccc2Cl)nc1CS(=O)CC(=O)N1CCN(c2cccc(C(F)(F)F)c2)CC1 (stereo unspecified)
-2% | Cc1cc(N2CCN(S(=O)(=O)c3ccc(Cl)cc3)CC2)c2ccccc2n1

# (further entries)
VDR inh | SMILES
-21% | O=C1Nc2ccccc2N=C(c2ccccc2)C1Br (stereo unspecified)
-19% | CCOC(=O)C1=C(COC(=O)[C@H](C)NS(=O)(=O)c2ccc(NC(C)=O)cc2)NC(=O)NC1C (stereo partly specified)
-27% | CCOc1ccc(C2=CSC3=NCCN23)cc1
-6% | CC(C)(C)n1nnnc1C(c1cccs1)N(Cc1cccnc1)Cc1ccco1 (stereo unspecified)
-5% | COc1ccc(C(=O)NNS(=O)(=O)c2ccc(OC)cc2)cc1
-14% | Cc1ccc(Cl)cc1N1CCN(C(=O)CN2C(=O)c3cccc4cccc2c34)CC1
-12% | NC(=O)Nc1ccc(C(=O)OCC(=O)Nc2cccc(S(=O)(=O)NC3=NCCCCC3)c2)cc1
10% | COc1cc(CC(=O)Nc2ccc(S(=O)(=O)Nc3ncccn3)cc2)cc(OC)c1OC
-5% | CCOc1ccc(NC(=O)CN2C(=O)c3ccccc3Sc3ccc(C(=O)OC)cc32)cc1
11% | COc1ccccc1C(=O)NCCC(=O)N1CCN(S(=O)(=O)c2ccc(Cl)cc2)CC1

# Next results.
VDR inh | SMILES
-2% | Nc1ccc2c(c1)Cc1cc(Cl)c(Cl)cc1-2
-1% | COCCNC(=O)C(c1cccs1)N(C(=O)Cn1nnc2ccccc21)c1cccc(C(C)=O)c1 (stereo unspecified)
23% | O=C(CSc1nncs1)NC(=O)NCc1ccco1
-6% | Cc1ccc(CNC(=O)c2c(O)nc3ccccn3c2=O)cc1
3% | COc1ccc(C(C)=O)cc1COC(=O)CNC(=O)c1ccc(F)cc1
-5% | O=C(C(Cc1ccccc1)NS(=O)(=O)c1cccc2cccnc12)N1CCc2ccccc21 (stereo unspecified)
-3% | CCCNC(=O)C1CCC(Cn2c(=O)c3sccc3n(CC(=O)N(CC)CC)c2=O)CC1 (stereo unspecified)
-4% | CCc1cccc(NS(=O)(=O)c2cccc3cccnc23)c1
5% | CC(=O)Nc1ccc(S(=O)(=O)NCc2nc(-c3ccccc3)no2)cc1
29% | CC(=O)c1ccc(OC(C)C)c(CSC(=N)N)c1

# Following part
VDR inh | SMILES
1% | Cc1cccc(C(C)(C)C)c1OCCN1CCCC1
0% | O=C(Nc1ccc2c(c1)OCO2)Oc1ccccc1
-28% | C=CCn1c(NC(=O)c2ccc(Br)o2)c(S(=O)(=O)c2ccccc2)c2nc3ccccc3nc21
-21% | CCOC(=O)c1c(C)n(C)c2c1cc(OC(C)=O)c1ccccc12
9% | COc1ccc(NC(=O)c2ccc(NS(=O)(=O)c3c(C)noc3C)cc2)cc1OC
2% | CCOC(=O)c1cc2c(=O)n3ccccc3nc2n(CC2CCCO2)c1=NC(=O)c1ccc(C)cc1 (stereo unspecified)
11% | COC(=O)c1ccc2c(=O)n(CCN3CCOCC3)c(SCC(=O)C(C)(C)C)nc2c1
4% | CCOc1ccc(Nc2oc(-c3ccco3)nc2C#N)cc1
1% | C/C(=N\Nc1ccccc1)c1cc2ccccc2oc1=O
-1% | COc1ccc(CC(=O)NCCc2ccc(S(N)(=O)=O)cc2)cc1

# (further entries)
VDR inh | SMILES
-14% | NC(=S)N/N=C/c1ccc(-c2ccc(Cl)c(Cl)c2)o1
4% | COc1cccc(NC(=O)CCSc2nnc3scc(-c4ccccc4)n23)c1
12% | O=C(CC(C(=O)N1CCc2ccccc21)n1ccnc1)NCC1CCCO1 (stereo unspecified)
8% | CCS(=O)(=O)c1ccccc1C(=O)N1CCN(c2nc3ccccc3s2)CC1
5% | CN(Cc1ccc(Cl)c(Cl)c1)C(=O)c1ccccc1SCC(=O)N1CCCC1
21% | CCOc1ccc(-n2c([S-])c(C(=O)Nc3ccc(S(=O)(=O)N4CCOCC4)cc3)[n+]3cc(C(N)=O)ccc23)cc1
18% | CC1CCc2onc(C(=O)O)c2C1 (stereo unspecified)
-9% | CC1=C(C(=O)Nc2ccccc2)C(c2ccccc2Cl)n2ncc(C(=O)Nc3cccc(C)c3)c2N1 (stereo unspecified)
6% | CC(C)CCN1C(=O)c2ccc(C(=O)Nc3cccc(S(N)(=O)=O)c3)cc2C1=O
-1% | CCC1Sc2ccccc2N(CC(=O)NCCC2=CCCCC2)C1=O (stereo unspecified)

# (listing goes on)
VDR inh | SMILES
-5% | CCc1ccccc1NC(=O)Cn1c(=O)n(Cc2ccco2)c(=O)c2ccccc21
1% | Cc1ccc(C)c(NC(=O)COC(=O)c2cc3ccccc3oc2=O)c1
-16% | COc1ccccc1NC(NC(=O)c1ccccn1)C(Cl)(Cl)Cl (stereo unspecified)
-20% | COc1ccc(NC(=S)/N=C(\N)Nc2nc(C)c3ccc(C)cc3n2)cc1
12% | CCC(=O)N(Cc1cc2ccccc2[nH]c1=O)C(C)C
-20% | COc1ccc(C2=NS(=O)(=O)N(C)C(C(=O)NCc3cccs3)=C2)cc1OC
? | COc1ccc(C(=O)OC(C)C(=O)NC2CCCC2)cc1S(=O)(=O)N1CCOCC1 (stereo unspecified)
-2% | CCc1c(C)nc2c(-c3ccccc3)c(C)nn2c1Nc1ccc(NC(C)=O)cc1
-21% | O=C(CN1C(=O)NC(c2ccccc2)(c2ccccc2)C1=O)N1CCN(c2ccccc2F)CC1
7% | Cc1ccc(OCC(=O)Nc2ccc3nc(SCC(=O)N4CCOCC4)sc3c2)cc1C

# (continued)
VDR inh | SMILES
-1% | CCC(C(=O)O/N=C(\N)c1ccc(C)cc1)c1ccccc1 (stereo unspecified)
7% | COC(=O)c1ccc(CC(=O)c2ccc(O)cc2O)o1
6% | CCc1ccc(CNC(=O)CCc2c(C)nn(-c3ccc(N4CCCC4)nn3)c2C)cc1
8% | CC1CC(C)(C)OC(C[N+]2(C)CCCCC2)O1 (stereo unspecified)
-13% | CC(=O)Nc1ccc(C(=O)COC(=O)CCS(=O)(=O)c2ccccc2)cc1
-16%&-6% | CC(=O)OC(COc1ccccc1)Cn1cnc2cc(C)c(C)cc21 (stereo unspecified)
2% | CCOc1ccc(OCC)c(NC(=O)CN2CCN(c3cccc(C)c3)C(C)C2)c1 (stereo unspecified)
-5% | COc1ccccc1Nc1nn2c(=O)c3ccc(C(=O)NC4CCC(C)CC4)cc3nc2s1 (stereo unspecified)
-8% | CCOC(=O)CNC(=O)c1ccc(OCC(F)(F)F)cc1
? | Cc1nc2ccc(NC(=O)C3=NN(C)C(=O)CC3)cc2s1
14% | COC(=O)[C@H](Cc1ccccc1)[C@@H](C)OS(N)(=O)=O
-8% | COc1ccc2[nH]c(=O)c(-c3nnn(-c4ccc(Cl)nc4)n3)cc2c1
